KCNQ2 pot = enhances the rat KCNQ2 potassium channel; O88943; CHO-K1 KCNQ2, FluxOR thallium flux fluorescence; active compounds read high; B-score at 10 µM; hit rate 0.54% among 310,000; AID 2239;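 active = fluorescence ratio B-score at least 3 SD of library B-scores, with initial fluorescence B-score within 3 SD, cut at about 5.3 in these data; same plate scores as AID 2156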;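 also: B-score of peak minus minimum over baseline fluorescence ratio after K+ and Tl+ stimulus; positive B-score means potentiation of KCNQ2 with more thallium influx and brighter signal; only the inactives scoring about 0 or higher are listed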
Target sequence (O88943 whole entry, looked up): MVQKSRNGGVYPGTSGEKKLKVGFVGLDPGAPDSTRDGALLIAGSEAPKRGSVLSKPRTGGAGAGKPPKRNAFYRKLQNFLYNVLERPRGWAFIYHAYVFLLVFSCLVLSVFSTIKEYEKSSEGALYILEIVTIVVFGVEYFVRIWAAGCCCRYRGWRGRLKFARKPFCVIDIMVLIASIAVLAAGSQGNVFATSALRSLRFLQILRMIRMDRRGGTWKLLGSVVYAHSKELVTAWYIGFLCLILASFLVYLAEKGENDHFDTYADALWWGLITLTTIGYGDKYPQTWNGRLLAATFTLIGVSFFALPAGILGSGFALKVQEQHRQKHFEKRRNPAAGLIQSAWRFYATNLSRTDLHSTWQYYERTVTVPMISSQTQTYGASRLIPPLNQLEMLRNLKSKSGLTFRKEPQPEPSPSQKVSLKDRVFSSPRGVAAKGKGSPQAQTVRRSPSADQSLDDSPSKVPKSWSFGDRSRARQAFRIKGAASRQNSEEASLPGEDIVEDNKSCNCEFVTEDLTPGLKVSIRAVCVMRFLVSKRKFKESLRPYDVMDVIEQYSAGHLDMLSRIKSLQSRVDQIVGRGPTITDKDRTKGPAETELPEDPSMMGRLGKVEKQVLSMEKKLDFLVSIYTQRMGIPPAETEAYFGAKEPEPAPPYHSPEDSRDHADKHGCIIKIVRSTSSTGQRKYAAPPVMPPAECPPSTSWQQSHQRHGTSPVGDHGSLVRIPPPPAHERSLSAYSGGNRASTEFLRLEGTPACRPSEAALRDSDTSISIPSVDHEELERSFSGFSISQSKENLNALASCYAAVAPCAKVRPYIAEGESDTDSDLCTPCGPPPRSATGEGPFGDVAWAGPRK
KCNQ2 pot baseline = recorded beside KCNQ2 pot, whose call it bears; B-score; compound at 10 µM; measured here: initial fluorescence intensity artifact check;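 brightness before thallium and not channel activity; 0 = typical well and far values either way flag optical interference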
The depositor's hits bear a star. Some of the compounds tested; the hit share may differ from the screen's.

SMILES | KCNQ2 pot | KCNQ2 pot baseline
O=C(O)c1cc(NN=Nc2cccc([N+](=O)[O-])c2)cc([N+](=O)[O-])c1 | 2.6 | -0.42
CC1=C/C(=N\OS(=O)(=O)c2ccccc2)C=CC1=O | 8.2* | 0.28*
CCN(C(=O)CSc1nc2ccccc2o1)C1CCS(=O)(=O)C1 (centres undefined) | 2.1 | -1.8
CC1CN(C(=S)Nc2ccc(F)cc2F)CC(C)O1 (centres undefined) | 0.43 | -1.9
Cc1ccc(NC(=O)C2CCN(S(C)(=O)=O)CC2)cc1Cl | 0.02 | -0.44
CC(=O)N(Cc1ccccc1)Cc1nc2sc(C)c(C)c2c(=O)[nH]1 | 0.01 | 0.64
COc1cc2[nH]c(=O)n(C3CCCCC3)c(=O)c2cc1OC | 1.1 | -0.58
COc1cc2c(cc1OC)C(C)N(C(=O)c1c(-c3ccccc3)noc1C)CC2 (centres undefined) | 0.22 | -1.3
COc1ccc(OC)c(S(=O)(=O)N/N=C\c2ccc3c(c2)OCO3)c1 | 1.1 | 0.13
O=C(CCCOc1ccccc1)Nc1cccc([N+](=O)[O-])c1 | 0.58 | -0.14
Cc1cccc(C(=O)Nc2ccc3c(c2)ncn3C)c1 | 1.3 | -0.62
CC(OC(=O)c1ccc(S(=O)(=O)N(C)C)cc1)C(=O)Nc1ccc(Cl)cn1 (centres undefined) | 2.1 | -1.9
CC(=O)Nc1ccc(S(=O)(=O)NCCC(=O)OCc2ccc([N+](=O)[O-])cc2)cc1 | 0.93 | 0.81
OCCOCCNc1ncnc2c1cnn2-c1ccccc1 | 1.6 | 4.7
O=c1[nH]cc(F)c(=O)[nH]1 | 1.2 | 0
CCCn1c(=O)c2ccccc2n2c(SCc3c(C(=O)OCC)oc4ccccc34)nnc12 | 0.02 | -1.4
CC1(C)Cc2c(sc3nc(SCC(=O)NCc4ccccc4)n(-c4ccccc4)c(=O)c23)CS1 | 0.97 | -0.28
C=CCN1C(=O)C(CC(=O)Nc2ccccc2)SC1=Nc1c(C)n(C)n(-c2ccccc2)c1=O (centres undefined) | 0.43 | -0.01
CCc1ccc(S(=O)(=O)Nc2c(NC3CCCCC3)c3ccccc3oc2=O)cc1 | 0.12 | -0.05
O=C(O)Cn1cc(C(=O)C(F)(F)F)c2ccccc21 | 0.09 | 0.04
CC(C)(C)SCCNS(=O)(=O)c1ccccc1 | 0.21 | 0.5
CCOc1ccc2ccccc2c1CNCCc1ccc(S(N)(=O)=O)cc1 | 0.78 | -2
Cc1cc(NC(=O)c2sccc2C)n(-c2nc3ccccc3[nH]2)n1 | 0.67 | -0.86
Cc1ccc(-c2csc(N3CCN(c4cc5c(cc4Cl)nc(-c4ccncc4)n5CCN4CCCCC4)CC3)n2)cc1 | 0.64 | -3.4
COc1ccc(CC(NC(C)=O)C(=O)NC2CCN(C(=O)NCc3ccccc3)CC2)cc1 (centres undefined) | 0.04 | 0.89
COc1ccc2nc(NCc3ccccc3)[nH]c2c1 | 0.44 | -0.76
CC1Cc2ccccc2N1C(=O)CSc1nccc(=O)[nH]1 (centres undefined) | 0.31 | -1.6
COc1ccc(/C=N/NC(=S)SC)cc1OC | 0.18 | -0.04
COc1cccc(C(=O)NCc2cn3ccsc3n2)c1 | 1.6 | 0.03
O=C(COC(=O)c1cc(S(=O)(=O)N2CCOCC2)ccc1F)Nc1c(Cl)cccc1C(F)(F)F | 0.78 | -0.11
CC(=O)Nc1nnc(COc2ccc(Cl)cc2)s1 | 0.55 | 1.7
COc1ccc(-c2nc(CS(=O)CC(=O)N3CCN(C)CC3)c(C)o2)cc1OC (centres undefined) | 0.36 | -1.1
CC(C)[C@H](NC(=O)N1CC(=O)Nc2ccccc21)C(=O)N[C@@H](C(=O)O)c1ccccc1 | 0.64 | 0.18
COC(=O)c1ccc(NC(=O)CC(=O)Nc2ccc(C(=O)OC)cc2)cc1 | 1.1 | -2
O=C(c1ccc2c(=O)n(Cc3ccc4c(c3)OCO4)c(=O)[nH]c2c1)N1CCN(c2ccccc2)CC1 | 1.5 | 1.5
CCOC(=O)C1(CC/C(C)=N\NC(N)=O)CC(C)OC1=O (centres undefined) | 2.9 | -1.4
CCN(C(=O)c1cccc(Br)c1)c1ccccc1 | 0.51 | -0.07
O=C(NCCc1ccc(C(F)(F)F)cc1)C1CCC(=O)N(CCCN2CCCC2=O)C1 (centres undefined) | 0.01 | 1.6
CCc1ccc(O)c(N=Cc2cccc(C)c2O)c1 | 7.5* | 0.15*
COc1ccc(C2=NC(C)(C)Cc3cc(OC)c(OC)cc32)cc1OC | 0.09 | 1.3
COc1cccc(NC(=O)Cn2c(CCC(=O)O)ccc2-c2cccs2)c1 | 0.58 | -2.4
CC(C)Oc1ccc2c(=O)c(-c3ccccc3)coc2c1 | 0.2 | -2.7
O=c1cc(-c2ccccc2)c2c(O)cc(O)cc2o1 | 1.4 | -3.8
O=C(C1CCCN(Cc2ccccc2Cl)C1)N1CCCCC1 (centres undefined) | 0.49 | 1.2
O=C(C1CCC1)N1CCN(S(=O)(=O)c2ccc(Br)cc2Cl)CC1 | 0.36 | 1.8
CCn1nnc(NC(=S)NC(=O)c2ccc(-c3cccc(Cl)c3)o2)n1 | 0.84 | -0.01
COc1cc(CCC(=O)N2CC(C)OC(C)C2)cc(OC)c1OC (centres undefined) | 0.85 | -1.2
O=C(NC1CCS(=O)(=O)C1)/C(=C\c1ccco1)NC(=O)c1ccccc1 (centres undefined) | 1 | 1.9
O=C(NCC1CCCO1)c1ccc(NS(=O)(=O)c2cccc([N+](=O)[O-])c2)cc1 (centres undefined) | 0.23 | 0.08
CCOC(=O)N1CCc2c(sc3nc(SC(C)C)n(N)c(=O)c23)C1 | 0.71 | -0.11
COCCN1C(=O)C(=O)/C(=C(/O)c2ccc3c(c2)OCCO3)C1c1ccc(C(=O)OC)cc1 (centres undefined) | 0.46 | -0.23
O=C(NC1CCCC1)C1CCN(C(=O)c2ccc(-c3ccccc3)cc2)CC1 | 0.44 | -0.14
CC(C1CC1)N(Cc1ccccc1)C(=S)Nc1cccc(C(F)(F)F)c1 (centres undefined) | 1 | 1.3
O=C(CNC(=O)c1cccc(F)c1)N/N=C/C=C/c1ccccc1 | 1.6 | 1.5
Cc1cccc(OCC(=O)NCCCNC(=O)c2ccc(C)nc2)c1 | 0.39 | -0.12
Nc1ccc(C(=O)Nc2ccco2)cc1 | 1.6 | -0.69
CC(=O)c1ccc(S(=O)(=O)N2CCN(S(=O)(=O)c3ccccc3C(F)(F)F)CC2)cc1 | 0.54 | -0.19
CCCCC(=O)Nc1cccc(NC(=S)NC(=O)C(C)C)c1 | 0.1 | -1.6
CCOc1cc(CNC(=O)CCCn2c(=O)c3cccn3c3cccnc32)cc(OCC)c1OCC | 0.17 | -0.31
COc1ccc(-c2nnc(Nc3ccc(CC(N)=O)cc3)c3ccccc23)cc1 | 0.54 | -0.7

Later entries
SMILES | KCNQ2 pot | KCNQ2 pot baseline
CCCC(=O)Nc1ccc(C(=O)NNC(=O)COc2ccc(Br)c(C)c2)cc1 | 0.47 | -0.1
CC1=NN(C(=O)c2ccccc2C)C(O)(c2ccc(Cl)cc2)C1 (centres undefined) | 11* | 1.7*
COCc1cc(N2CCOCC2)nc(-c2ccccc2)n1 | 0.78 | 0.64
Cc1ccc(CCNC(=O)C2CCN(C(=O)N(C)C)CC2)cc1 | 0.48 | -0.98
CC(=O)N/C(=C/c1ccc(OS(=O)(=O)c2ccc(C)cc2)cc1)C(=O)Nc1ccc(C(=O)O)cc1 | 1.1 | -1.2
COc1ccc(CN=CC2=C(O)CNC2=O)cc1OC | 1.1 | -1.4
O=C(CSCc1ccc(F)cc1)NCc1ccc(F)cc1 | 0.21 | 0.57
CCc1nc(CN2CCN(c3ccc(C(F)(F)F)cn3)CC2)c(C)[nH]1 | 1.1 | 0
O=C(NCc1ccc2c(c1)OCO2)C1CCCN1C(=O)Nc1ccc(Cl)cc1 (centres undefined) | 0.84 | 0.37
CCOC(=O)C1C(c2ccccc2Cl)NC(=O)N(C)C1(O)C(F)(F)F (centres undefined) | 0.13 | -0.27
O=C(CSc1nc2ccccc2s1)Nc1ccc(Cl)c(C(=O)O)c1 | 0.6 | -0.46
Cc1cccc(C)c1NC(=O)COC(=O)c1ccc(N2CCCC2)c([N+](=O)[O-])c1 | 0.49 | 0.3
O=C(Nc1ccc(F)cc1Cl)c1ccc2c(=O)n3c(nc2c1)CCC3 | 0.33 | -0.12
Cn1c(CCN2CCOCC2)nc2cc(NC(=O)COc3ccc([N+](=O)[O-])cc3)ccc21 | 0.48 | -1.7
CCN(CC)CCCNc1ncnc2scc(-c3ccc(F)cc3)c12 | 0.32 | -0.02
CC(C)[C@H](NC(=O)C1CCCC1)c1nc2ccccc2[nH]1 | 1.4 | -0.49
COc1ccc(N2CCN(C(=O)c3ccc(C)cc3)CC2)c([N+](=O)[O-])c1 | 1.5 | -0.97
Cn1nc2c3ccccc3n(Cc3ccccc3)c2nc1=S | 0.86 | 0.65
CCn1c(O)c(N=NC(=O)CNC(=O)Cc2ccccc2)c2ccccc21 | 0.98 | -2
Nc1nc(-c2ccc(NC(=O)c3ccco3)cc2)cs1 | 1.1 | -2.7

Rewritten as comma-separated lines: 17 of the compounds above
Structure,KCNQ2 pot,KCNQ2 pot baseline
CCCC(=O)Nc1ccc(C(=O)NNC(=O)COc2ccc(Br)c(C)c2)cc1,0.47,-0.1
CC1=NN(C(=O)c2ccccc2C)C(O)(c2ccc(Cl)cc2)C1 (centres undefined),11*,1.7*
COCc1cc(N2CCOCC2)nc(-c2ccccc2)n1,0.78,0.64
Cc1ccc(CCNC(=O)C2CCN(C(=O)N(C)C)CC2)cc1,0.48,-0.98
CC(=O)N/C(=C/c1ccc(OS(=O)(=O)c2ccc(C)cc2)cc1)C(=O)Nc1ccc(C(=O)O)cc1,1.1,-1.2
COc1ccc(CN=CC2=C(O)CNC2=O)cc1OC,1.1,-1.4
O=C(CSCc1ccc(F)cc1)NCc1ccc(F)cc1,0.21,0.57
CCc1nc(CN2CCN(c3ccc(C(F)(F)F)cn3)CC2)c(C)[nH]1,1.1,0
O=C(NCc1ccc2c(c1)OCO2)C1CCCN1C(=O)Nc1ccc(Cl)cc1 (centres undefined),0.84,0.37
CCOC(=O)C1C(c2ccccc2Cl)NC(=O)N(C)C1(O)C(F)(F)F (centres undefined),0.13,-0.27
O=C(CSc1nc2ccccc2s1)Nc1ccc(Cl)c(C(=O)O)c1,0.6,-0.46
Cc1cccc(C)c1NC(=O)COC(=O)c1ccc(N2CCCC2)c([N+](=O)[O-])c1,0.49,0.3
O=C(Nc1ccc(F)cc1Cl)c1ccc2c(=O)n3c(nc2c1)CCC3,0.33,-0.12
Cn1c(CCN2CCOCC2)nc2cc(NC(=O)COc3ccc([N+](=O)[O-])cc3)ccc21,0.48,-1.7
CCN(CC)CCCNc1ncnc2scc(-c3ccc(F)cc3)c12,0.32,-0.02
CC(C)[C@H](NC(=O)C1CCCC1)c1nc2ccccc2[nH]1,1.4,-0.49
COc1ccc(N2CCN(C(=O)c3ccc(C)cc3)CC2)c([N+](=O)[O-])c1,1.5,-0.97

(next part)
SMILES | KCNQ2 pot | KCNQ2 pot baseline
N/C(=N\OCC(=O)Nc1ccccc1)c1nonc1N | 0.33 | 0.07
CN(C)CCCNCCCNC(=O)c1ccccn1 | 0.17 | -0.57
Cc1ccc(C)c2sc(N)nc12 | 2.3 | 0.79
CCc1ccc(S(=O)(=O)Nc2c(C)n(C)n(-c3ccccc3)c2=O)cc1 | 1.9 | 2
O=C1c2cccc3cccc(c23)C(=O)N1c1nccs1 | 0.11 | 0.87
CCOC(=O)N1CCN(C(=O)c2cc(OC)cc(OC)c2)CC1 | 0.08 | -0.38
O=C(CCN1CCN(CCO)CC1)Nc1ccc(Br)cc1 | 0.86 | 1.2
Cc1cccc([C@@H]2[C@@H]3C(=O)N(Cc4ccccc4)C(=O)[C@@H]3[C@]3(CC(C)C)C(=O)N(c4cccc(F)c4)C(=O)N23)c1 | 0.18 | 0.11
CCOc1cc(/C=C2/NC(=O)N(Cc3ccccc3F)C2=O)ccc1O | 0.53 | 1.4
COc1ccccc1N1C(=O)CC(N2CCN(c3ccc(Cl)cc3)CC2)C1=O (centres undefined) | 1 | 1.6
CCS(=O)(=O)c1ccc2oc(SCC(=O)NC(C)C3CC4CCC3C4)nc2c1 (centres undefined) | 10* | 0.85*
C/C(=C\C(=O)c1ccc(C)o1)Nc1ccc2c(c1)OCO2 | 0.83 | 0.45
CC(C)(C)NC(=O)C(c1ccncc1)N(C(=O)Cn1nnc(-c2ccc(F)cc2)n1)c1cccc(F)c1 (centres undefined) | 0.38 | -0.63
COc1ccc(-n2c(=O)c3ccccc3n(CC(=O)NC3CCCC3)c2=O)c(OC)c1 | 0.74 | 0.65
Cc1cc(OCC(=O)NCC(O)c2ccccc2)c2c(C)c(C)c(=O)oc2c1 (centres undefined) | 0.63 | 1.7
O=C(CCCCCn1c(=O)[nH]c2ccccc2c1=O)NCCCN1CCN(c2ccccc2F)CC1 | 0.22 | 0.93
CN1C(=O)NC(c2ccc(O)cc2)C2=C1CN(c1ccccc1)C2=O (centres undefined) | 0.28 | 0.81
C/C(=N\NC(=O)C1(C)CC1(Br)Br)c1ccc(NC(=O)c2ccc(C)o2)cc1 (centres undefined) | 1.9 | -1.8
CC1CCCC(C)N1/N=C/c1cc(Br)c(O)c(Br)c1 (centres undefined) | 1.8 | -0.43
CCCCc1c(O)nc(SCC(=O)c2ccccc2)n(-c2ccccc2)c1=O | 0.09 | -0.31

Single records, as listed above. Values in the order: KCNQ2 pot	KCNQ2 pot baseline
CCOc1cc(/C=C2/NC(=O)N(Cc3ccccc3F)C2=O)ccc1O is listed with 0.53	1.4
COc1ccc(-n2c(=O)c3ccccc3n(CC(=O)NC3CCCC3)c2=O)c(OC)c1 is listed with 0.74	0.65

(continued)
SMILES | KCNQ2 pot | KCNQ2 pot baseline
COc1ccc(CN2CCNC(=O)C2CC(=O)NCc2cnn(C)c2)cc1OC (centres undefined) | 0.02 | -0.43
O=C(CCCOc1ccccc1)N1CCN(c2ccccn2)CC1 | 1.3 | -1.9
CC(C)Cc1nnc(NC(=O)CSc2nc(O)c(-c3ccccc3)c(=O)[nH]2)s1 | 1 | -0.02
CC1CCC(NC(=O)CNC(=O)Cc2cccc3ccccc23)CC1 (centres undefined) | 0.13 | -0.22
